MT1-MMP act inh – MT1-MMP (human) activation inhibition; P50281; HT1080 RFP-PRO-GFP cells, GFP/RFP ratio fluorescence, overnight; percent of plate control window, DMSO zero; actives 0.061% (n = 360,000); GFP/RFP ratio change, % at 20 µM;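 active = GFP/RFP ratio change of at least 30% with cell ATP level not reduced by more than half and red fluorescence within 50% of control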; also: strong numbers were not always called active
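Assay system: RFP-PRO-GFP reporter HT1080 cells; read-out basis: GFP/RFP fluorescence ratio; benchmarks: DMSO wells and RFP-L50D-GFP cells; doses: 20 µM single dose, 1% DMSO; schedule: overnight cell settling, then overnight compound exposure, 37 °C, 5% CO2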
Yeast UUG start – alters start codon recognition fidelity in yeast. S. cerevisiae UUG-firefly luciferase reporter, luminescence/redox ratio. activity score, % at 18.7 µM. actives 0.13% (n = 350,000). AID 602363;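 active = replicate mean at a twofold rise or more, about +100% in these data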;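 also: firefly luciferase made from a UUG start codon reports start codon fidelity; reporter light over untreated wells divided by growth signal over untreated wells; some hits fall short of that in this replicate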
CSC inhib – cancer stem cell inhibition; cancer stem cell-like cells viability, luminescence; actives 1.1% (n = 300,000); inhibition, % at 7.5 µM;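 active = mean at 75% or more and at least half the replicates too; tested in HMLE shEcad cells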;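 also: 0% = median of negative and 100% = median of positive control wells; the first replicate is given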
PABP polyA inh – blocks human PABP binding to poly(A) RNA; P11940; fluorescence polarization; inhibition, % at 35 µM; actives 1% (n = 290,000);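 active = 50% or more with normal probe brightness, or confirmed in later tests; about a fifth of its hits are not listed in these tables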;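 also: calls also rest on retests at 20 µM and on dose response follow-up; controls were probe without protein and protein plus probe with vehicle; some compounds called inactive have numbers as strong as hits; many hits fall short of the cut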
Rce1 inh – inhibitors of yeast Ras-converting enzyme; Q03530; yeast membranes, quenched prenylated peptide cleavage fluorescence; calls only; actives 0.27% (n = 290,000); AID 2563;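 active = fall in fluorescence gain of 50% or more versus controls, with final raw signal at or below 3038400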;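 also: plate controls were neutral control wells for no effect and wells lacking membranes for full effect; tested at 10 µM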
Target sequence (Q03530 whole entry, looked up): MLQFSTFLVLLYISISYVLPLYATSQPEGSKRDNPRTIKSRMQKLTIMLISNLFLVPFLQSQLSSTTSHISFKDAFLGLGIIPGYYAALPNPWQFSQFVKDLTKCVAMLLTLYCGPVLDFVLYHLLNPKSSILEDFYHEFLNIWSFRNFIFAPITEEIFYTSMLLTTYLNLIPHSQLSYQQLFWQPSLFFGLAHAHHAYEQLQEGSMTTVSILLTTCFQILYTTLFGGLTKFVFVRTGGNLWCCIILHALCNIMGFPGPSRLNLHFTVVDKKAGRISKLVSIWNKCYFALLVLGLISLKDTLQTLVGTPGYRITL
eIF4H inh – inhibitors of RNA binding by human eIF4H | inhibition, % at 35 µM | actives 0.94% (n = 290,000) | AID 2012 | eIF4H fluorescence polarization binding assay | Q15056;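 active = 50% or more with normal probe brightness, or confirmed in later tests; about a fifth of its hits are not listed in these tables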;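 also: calls also rest on retests at 20 µM and on dose response follow-up; 0% = protein and probe with vehicle and 100% = probe without protein; strong numbers were not always called active; many hits fall short of the cut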
Env fusion inh – blocks HIV Env-driven cell-cell fusion | HeLa-JRFL Env/CEM21 cell fusion, luciferase | inhibition, % at 12.3 µM | AID 651610 | actives 1.1% (n = 360,000);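 active = mean replicate inhibition score of at least 50 and every replicate individually at or above 50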;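 also: 0% = plate neutral controls and 100% = maraviroc near 300 nM; one replicate is shown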
MT1-MMP act inh RFP – also measured in MT1-MMP act inh; calls as there; RFP signal change, %; measured here: RFP expression control read;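 0 = vehicle wells; hits needed this value within 50% of zero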
* hit, by the source's call; i = inactive; / = not tested or not shown; + = active, no number. Not all compounds are listed, so the mix of outcomes need not match the whole.

1) CCCCNCCCOc1cc(Cl)ccc1Cl
2) CCCCn1nc(NC(=O)CC)c2cc3cc(OC)ccc3nc21
3) CN(c1ccccc1)S(=O)(=O)c1cc(C(=O)NCc2ccco2)ccc1Cl
4) Cc1c(C(=O)NNS(=O)(=O)c2ccccc2)sc(=S)n1C
5) COc1ccc(C(=O)O)cc1S(=O)(=O)Nc1ccc(C)cc1
6) COc1ccccc1-n1nnnc1SCC(=O)N1CCCC1=O
7) O=C(CN1C(=O)COc2ccc(Cl)cc21)NC1CC1
8) COc1ccc(N2CC(C(=O)Nc3nc4ccc(S(C)(=O)=O)cc4s3)CC2=O)cc1 (configuration not stated)
9) OCCN1CCN(CC(O)COc2ccc(-c3ccccc3)cc2)CC1 (configuration not stated)
10) O=C(CN1C(=O)c2ccc([N+](=O)[O-])cc2C1=O)Nc1cc(S(=O)(=O)N2CCOCC2)ccc1Cl

screen / no.	1	2	3	4	5	6	7	8	9	10
MT1-MMP act inh	0	7	-4	-1	1	-4	4	-6	-6	-2
MT1-MMP act inh RFP	1	0	-4	5	3	1	4	3	-2	-3
Yeast UUG start	/	2	-16	-43	/	-18	14	-9	-18	-10
CSC inhib	11	-10	/	-9	-2	0	-5	-1	29	-1
PABP polyA inh	2	-7	/	16	22	1	-16	-1	16	/
Rce1 inh	i	i	/	i	i	i	i	i	i	/
eIF4H inh	-13	-2	/	3	-7	21	0	16	-6	/
Env fusion inh	/	-4	-15	/	6	/	3	-5	16	0

11) CC1(C)CC(=O)C(C=Nc2ccc(O)c(N=CC3=C(O)CC(C)(C)CC3=O)c2)=C(O)C1
12) O=C(COC(=O)c1ccc2c(c1)C(=O)N(Cc1ccncc1)C2=O)Nc1cccc2ccccc12
13) CC(NC(=O)c1cccnc1)C(c1cccs1)N1CCN(c2ccccc2F)CC1 (configuration not stated)
14) CN(CC(=O)Nc1ccccc1Cl)C(=O)CSc1nncs1
15) c1ccc(CCNc2ccnc3cc4ccccc4cc23)cc1
16) COc1ccccc1/C=C(/C(=O)OCC(=O)NCc1ccccc1)c1ccccc1
17) CC(C)N=c1c([N+](=O)[O-])nn(C)n1O
18) CC(C)N(C(=O)COC(=O)c1ccc([N+](=O)[O-])cc1)c1ccccc1
19) CN(C)S(=O)(=O)c1ccc(NC(=O)COc2cccc3c2OC(C)(C)C3)cc1
20) CC1CCCC(NC(=O)CCCn2c(=S)[nH]c3ccccc3c2=O)C1C (configuration not stated)

screen / no.	11	12	13	14	15	16	17	18	19	20
MT1-MMP act inh	-19	2	-3	-4	8	-1	-3	-5	-1	2
MT1-MMP act inh RFP	4	4	-5	-1	-16	0	4	2	0	4
Yeast UUG start	/	/	3	-22	/	-5	/	/	-12	/
CSC inhib	3	-2	-12	-4	/	-1	-12	-10	/	25
PABP polyA inh	5	-4	8	/	13	7	10	-3	/	26
Rce1 inh	i	i	i	i	+	i	i	i	/	i
eIF4H inh	14	26	-6	/	13	-13	2	5	/	13
Env fusion inh	23	8	14	/	17	5	-15	14	1	3

21) CCOC(=O)N1CCC(NS(=O)(=O)c2ccc(C)c(Cl)c2)CC1
22) CCOc1ccccc1NC(=O)CSc1ccc(-c2sc(C)nc2C)nn1
23) O=S(=O)(c1ccc(C2CCCCC2)cc1)N1CCN(c2ncccn2)CC1
24) Cc1cc([N+](=O)[O-])nn1Cc1ccc(C(=O)N/N=C/c2ccc(F)cc2)cc1
25) COc1ccc(NC(=O)COc2cccc3c2CCN(Cc2cccnc2)C3=O)c(OC)c1
26) Cc1cccc(-c2nc(C#N)c(NC3CCCCC3)o2)c1
27) O=S(=O)(c1ccccc1)N1CCN(CC(O)COc2ccc3c(c2)CCC3)CC1 (configuration not stated)
28) O=C(C1CC1)N1CCc2cc(Br)cc(S(=O)(=O)NCc3ccccn3)c21
29) O=C(COC(=O)CNC(=O)c1ccc(Cl)cc1Cl)NC(=O)NC1CCCCC1
30) O=C(CS(=O)(=O)c1c[nH]c2ccccc12)N1CCCc2ccccc21

screen / no.	21	22	23	24	25	26	27	28	29	30
MT1-MMP act inh	4	-4	0	3	-1	3	4	-1	3	4
MT1-MMP act inh RFP	-13	-19	-9	0	-6	-10	-2	3	4	1
Yeast UUG start	-5	7	-11	-11	-12	3	0	-30	21	5
CSC inhib	-12	3	2	1	-6	99*	2	-9	-13	0
PABP polyA inh	-1	2	18	3	10	-6	1	-8	/	0
Rce1 inh	i	i	i	i	i	i	i	i	i	i
eIF4H inh	-7	-1	1	0	3	-6	-10	0	/	4
Env fusion inh	-2	28	/	3	4	/	/	-14	13	4

31) CCOc1ccc(NS(=O)(=O)c2cc(NC(=O)CCS(=O)(=O)c3ccc(C)cc3)ccc2OC)cc1
32) Cc1cc(C=O)c(C)n1-c1ccc(N2CCCCC2)c([N+](=O)[O-])c1
33) Cc1cc(C(=S)N2CCOCC2)c(C)n1-c1ccc(F)cc1
34) CN(Cc1cnn(C)c1)C(=O)c1sc2cccc(Cl)c2c1Cl
35) COc1ccc(C)cc1-n1nnnc1SCc1csc(C)n1
36) CCOc1ccc2ccc(OCC)c(/C=N/n3cnnc3)c2c1
37) Cc1nnc(NC(=O)CC23CC4CC(CC(C4)C2)C3)s1
38) CN1CCN(CC(O)COC(c2ccccc2)c2ccccc2)CC1 (configuration not stated)
39) Cc1ccc(C)c(OCCCCn2ccnc2)c1
40) C=CCn1c(SC(C)CC)nc(O)cc1=O (configuration not stated)

screen / no.	31	32	33	34	35	36	37	38	39	40
MT1-MMP act inh	0	-10	2	5	0	-3	4	3	2	6
MT1-MMP act inh RFP	0	-18	2	1	-6	0	3	3	4	-2
Yeast UUG start	-4	-7	/	-16	1	-11	-11	/	-12	/
CSC inhib	0	-4	-2	8	4	16	-6	/	33	-1
PABP polyA inh	-7	13	8	6	2	4	-2	20	-2	-5
Rce1 inh	i	i	i	i	i	i	i	i	i	i
eIF4H inh	-3	2	10	0	-1	0	-1	-10	6	0
Env fusion inh	10	/	-4	-88	-32	-17	19	1	-17	/

41) COC(=O)CNc1cc(S(=O)(=O)N2CCCCC2)ccc1Oc1ccc(C(=O)OC)cc1
42) CC(NC(=O)c1ccccc1)C(=O)Nc1ccccc1 (configuration not stated)
43) Cc1ccc(-c2csc(NC(=O)CN3C(=O)CCC3=O)n2)cc1
44) O=C(c1ccccn1)c1ccc2ccccc2n1
45) CC(C)(C)c1ccc(CC(=O)N2CCC2(C)C(=O)NS(=O)(=O)c2ccccc2C(F)(F)F)cc1 (configuration not stated)
46) O=C(Nc1ccc2c(c1)OCCO2)C1CCCN(S(=O)(=O)c2cnc[nH]2)C1 (configuration not stated)
47) Cc1nnc(N2CCN(c3ccccc3)CC2)[nH]c1=O
48) CCN(C(=S)Nc1cccc(C)c1)c1ccccc1
49) O=C(NCc1cccs1)C1CC(c2ccc(Cl)cc2)=NO1 (configuration not stated)
50) CCN(CC)S(=O)(=O)c1ccc(-c2nnc(SCc3nnc(-c4ccc(C)cc4)o3)o2)cc1

screen / no.	41	42	43	44	45	46	47	48	49	50
MT1-MMP act inh	1	3	1	-2	-2	-10	1	7	-2	7
MT1-MMP act inh RFP	-3	3	3	4	4	7	2	5	0	0
Yeast UUG start	3	-8	/	-7	16	-7	-22	-21	/	-41
CSC inhib	5	/	4	-7	/	/	-20	/	49	-1
PABP polyA inh	2	/	5	-9	/	-8	-1	5	-5	-1
Rce1 inh	i	/	i	i	/	i	i	i	i	i
eIF4H inh	-2	/	-6	-3	/	-6	-3	7	-6	-6
Env fusion inh	1	9	-14	-2	-15	-1	/	/	-23	/

Given in markdown: part of the list above.
| No. | SMILES | MT1-MMP act inh | MT1-MMP act inh RFP | Yeast UUG start | CSC inhib | PABP polyA inh | Rce1 inh | eIF4H inh | Env fusion inh |
| --- | --- | --- | --- | --- | --- | --- | --- | --- | --- |
| 42 | CC(NC(=O)c1ccccc1)C(=O)Nc1ccccc1 (configuration not stated) | 3 | 3 | -8 | / | / | / | / | 9 |
| 43 | Cc1ccc(-c2csc(NC(=O)CN3C(=O)CCC3=O)n2)cc1 | 1 | 3 | / | 4 | 5 | i | -6 | -14 |
| 44 | O=C(c1ccccn1)c1ccc2ccccc2n1 | -2 | 4 | -7 | -7 | -9 | i | -3 | -2 |
| 45 | CC(C)(C)c1ccc(CC(=O)N2CCC2(C)C(=O)NS(=O)(=O)c2ccccc2C(F)(F)F)cc1 (configuration not stated) | -2 | 4 | 16 | / | / | / | / | -15 |

(further entries)
51) Cc1nn(C)c(C(=O)NNC(=S)Nc2ccc(F)cc2)c1[N+](=O)[O-]
52) CCOC(=O)C1=C(C)NC(=O)NC1c1cccc(OC)c1OCc1ccccc1Cl (configuration not stated)
53) Cc1ccc(C)c(NS(=O)(=O)c2ccc3c(c2)Cc2cc(S(=O)(=O)Nc4cc(C)ccc4C)ccc2-3)c1
54) COc1ccc(C(=O)c2nccc3ccccc23)cc1
55) CC(C)C(C(=O)Nc1ccccc1F)N1C(=O)c2ccccc2C1=O (configuration not stated)
56) CC1CN(C(=O)COC(=O)[C@@H](NC(=O)c2ccccc2Cl)C(C)C)CC(C)O1 (some centres not stated)
57) CC[C@@]12C(=O)N(c3ccccc3)C(=O)N1[C@H](c1cccc(C)c1)[C@@H]1C(=O)N(Cc3ccccc3)C(=O)[C@@H]12
58) COc1ccc(OC)c(/C=C/C(=O)Nc2cccc(S(=O)(=O)NC3=NCCCCC3)c2)c1
59) Cc1cc(NC(=O)CSc2nc(C(C)C)nc3sc4c(c23)CCC(C)C4)no1 (configuration not stated)
60) CN(C)c1ccccc1C(=O)N1CCC(n2nccc2NC(=O)C2CC2)CC1

screen / no.	51	52	53	54	55	56	57	58	59	60
MT1-MMP act inh	7	-3	1	0	-1	4	-4	5	1	-5
MT1-MMP act inh RFP	0	-1	1	-2	3	2	2	-3	0	2
Yeast UUG start	0	-12	-6	/	-9	-17	-4	-3	-15	-4
CSC inhib	11	8	17	4	-4	-10	-4	-10	/	13
PABP polyA inh	-1	-8	1	5	/	/	-8	/	5	6
Rce1 inh	i	/	/	i	i	/	i	/	i	i
eIF4H inh	-4	-3	-1	-4	/	/	-12	/	-4	-5
Env fusion inh	-24	-62	-16	-12	9	/	88*	-7	-56	5

61) CC(=O)N1CCC(C(=O)Nc2ccc3c(c2)CCC3)CC1
62) CC1CN(CCCSc2ccc(Cl)cc2)CC(C)O1 (configuration not stated)
63) COC(=O)CSc1cc(C)nc(NC(C)=O)n1
64) CCn1ncc(/C=N\NC(=O)c2ccc3c(c2)c(C)c(C)n3Cc2ccccc2)c1C
65) CNC(=O)CN(c1cc(OCCOC)c(Cl)cc1Cl)S(=O)(=O)c1ccccc1
66) Cc1ccc2oc(=O)cc(CN3CC(C)OC(C)C3)c2c1 (configuration not stated)
67) Nc1nnc(SC2CCCC2)s1
68) COc1ccc(C(=O)OCc2cc(C)ccc2C)cc1S(=O)(=O)N1CCCC1
69) COc1cc(C(=S)N2CCCC2)cc(OC)c1OC

screen / no.	61	62	63	64	65	66	67	68	69
MT1-MMP act inh	1	3	14	1	2	0	-1	1	-6
MT1-MMP act inh RFP	1	1	11	0	3	-4	-1	-4	0
Yeast UUG start	-9	/	-8	-18	/	-20	-11	-13	/
CSC inhib	0	49	-15	-14	-1	-10	-3	5	-2
PABP polyA inh	13	0	4	20	7	8	16	/	-15
Rce1 inh	i	i	i	i	i	i	i	/	i
eIF4H inh	8	5	6	4	-9	1	3	/	-8
Env fusion inh	-8	19	18	-21	-2	-2	-28	/	0

Arranged by value in MT1-MMP act inh (rising): three of the compounds above
| no. | Molecule | MT1-MMP act inh | MT1-MMP act inh RFP | Yeast UUG start | Rce1 inh | Env fusion inh |
| --- | --- | --- | --- | --- | --- | --- |
| 36 | CCOc1ccc2ccc(OCC)c(/C=N/n3cnnc3)c2c1 | -3 | 0 | -11 | i | -17 |
| 49 | O=C(NCc1cccs1)C1CC(c2ccc(Cl)cc2)=NO1 (configuration not stated) | -2 | 0 | / | i | -23 |
| 42 | CC(NC(=O)c1ccccc1)C(=O)Nc1ccccc1 (configuration not stated) | 3 | 3 | -8 | / | 9 |

Compound activity as filed in PubChem.
